UUG fidelity = modulators of yeast start codon fidelity, primary screen, whole organism, S. cerevisiae, single point, plate reader; S. cerevisiae UUG-firefly luciferase reporter, luminescence/redox ratio; activity score, % at 18.7 µM; 350,000 tested, 0.13% active; AID 602363, 2012;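 active means replicate mean at a twofold rise or more, about +100% in these data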;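 further: firefly luciferase made from a UUG start codon reports start codon fidelity; reporter light over untreated wells divided by growth signal over untreated wells; some hits fall short of that in this replicate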
Starred values were filed as active, the others as inactive. This is a subset (hit frequency here may not be typical).

| Compound | UUG fidelity |
| --- | --- |
| C[C@@H]1CN([C@@H](C)CO)C(=O)c2cc(NC(=O)CCC(F)(F)F)ccc2O[C@@H]1CN(C)Cc1ccc(C(=O)O)cc1 | -8 |
| CCCC(=O)Nc1ccc2c(c1)C(=O)N(C)C[C@H](OC)[C@@H](C)CN(C(=O)c1cnccn1)[C@@H](C)CO2 | -1 |
| CC(C)NC(=O)N(C)C[C@H]1Oc2c(NC(=O)c3ccncc3)cccc2C(=O)N([C@H](C)CO)C[C@@H]1C | -16 |
| C[C@@H]1CN([C@@H](C)CO)C(=O)c2cc(NC(=O)c3ccncc3)ccc2O[C@@H]1CN(C)S(=O)(=O)c1cn(C)cn1 | -21 |
| CN(C)CC#Cc1ccc([C@@H]2[C@@H](CO)N3CCCCN(S(=O)(=O)c4ccccc4F)C[C@H]23)cc1 | 11 |
| COc1cccc(NC(=O)N2C[C@@H](O)COC[C@H]3O[C@@H](CC(=O)NC4CCCC4)CC[C@@H]32)c1 | 5 |
| Cc1ccccc1S(=O)(=O)N1CCCCN2[C@H](C1)[C@@H](c1ccc(C#CCN(C)C)cc1)[C@@H]2CO | 16 |
| Cc1cccc(-c2ccc([C@@H]3[C@@H](CO)N4CCCCN(S(=O)(=O)c5cn(C)cn5)C[C@@H]34)cc2)c1 | 17 |
| C[C@H]1CN([C@@H](C)CO)C(=O)c2cc(NC(=O)CCCN(C)C)ccc2O[C@H]1CN(C)C | -1 |
| CC(C)NC(=O)N1[C@H](CO)[C@H]2c3ccccc3N(C(=O)Nc3ccccc3)C[C@H]21 | -7 |
| CN1CCN(C(=O)C[C@H]2C[C@@H]3c4cc(NS(=O)(=O)c5ccc(F)cc5)ccc4O[C@@H]3[C@@H](CO)O2)CC1 | 4 |
| CO[C@H]1CN(C)C(=O)c2ccc(NS(=O)(=O)c3ccccc3C)cc2OC[C@@H](C)N(S(C)(=O)=O)C[C@@H]1C | 8 |
| O=C(c1cccc(F)c1)N1CC[C@@H]2[C@H]1c1cc(C#Cc3cccc(F)c3)ccc1N[C@@H]2CO | -20 |
| CO[C@H]1CN(C)C(=O)c2cc(NC(=O)C3CCCC3)ccc2OC[C@@H](C)NC[C@@H]1C | -15 |
| CC(C)OC(=O)N(C)C[C@H]1OCc2ccccc2-c2c(n(C)c3ccccc23)C(=O)N([C@H](C)CO)C[C@@H]1C | 16 |
| CC(C)NC(=O)Nc1ccc2c(c1)C(=O)N([C@@H](C)CO)C[C@@H](C)[C@@H](CN(C)S(=O)(=O)c1ccc(Cl)cc1)O2 | 2 |
| C[C@@H]1CN([C@@H](C)CO)C(=O)c2cccc(NC(=O)Nc3ccccc3)c2O[C@H]1CN(C)Cc1ccncc1 | -12 |
| C[C@H]1CN([C@@H](C)CO)C(=O)c2cc(NC(=O)CCN3CCOCC3)ccc2O[C@H]1CN(C)Cc1ccc(C(=O)Nc2ccccc2N)cc1 | -9 |
| C[C@H]1CN([C@@H](C)CO)C(=O)Cc2cc(NC(=O)Nc3ccc(C(F)(F)F)cc3)ccc2O[C@H]1CN(C)Cc1ccncc1 | -1 |
| COc1cccc(C(=O)Nc2ccc3c(c2)C(=O)N(C)[C@@H]2CC[C@H](CC(=O)N[C@H](C)c4ccccc4)O[C@H]2CO3)c1 | -4 |
| CN1[C@@H]2c3ccc(C4=CCCC4)c(=O)n3C[C@H]1[C@H](CO)[C@H]2C(=O)NCc1cc(F)cc(F)c1 | 19 |
| CO[C@H]1CN(C)C(=O)c2cc(NS(C)(=O)=O)ccc2OC[C@H](C)N(C(=O)c2ccc3c(c2)OCO3)C[C@@H]1C | -12 |
| O=C(C1CCOCC1)N1C[C@H]2[C@@H](c3ccccc31)[C@@H](CO)N2C(=O)Nc1cccc(F)c1 | 3 |
| C[C@H](NC(=O)C[C@@H]1CC[C@@H]2[C@H](COC[C@@H](O)CN2C(=O)Nc2ccccc2)O1)c1ccccc1 | 0 |
| Cc1noc(C)c1NC(=O)Nc1ccc2c(c1)C(=O)N([C@@H](C)CO)C[C@@H](C)[C@H](CN(C)S(=O)(=O)c1cn(C)cn1)O2 | -20 |
| O=C(c1ccc(F)cc1)N1CCCCN2[C@H](C1)[C@@H](c1ccc(-c3ccccc3)cc1)[C@@H]2CO | 21 |
| COc1ccccc1S(=O)(=O)N1C[C@@H](O)COC[C@H]2O[C@H](CC(=O)O)CC[C@@H]21 | -12 |
| COc1ccc(S(=O)(=O)N(C)C[C@@H]2Oc3c(NC(=O)NC4CCCCC4)cccc3C(=O)N([C@H](C)CO)C[C@@H]2C)cc1 | -1 |
| O=C(c1cccc(F)c1)N1CC[C@@H]2[C@H]1c1cc(-c3ccccc3F)ccc1N[C@@H]2CO | -9 |
| C[C@H]1CN([C@@H](C)CO)C(=O)c2cc(NC(=O)Nc3ccc4c(c3)OCO4)ccc2O[C@@H]1CN(C)S(=O)(=O)c1ccc(F)cc1 | -8 |
| O=C(Nc1ccccc1)N1CCCCN2[C@H](CO)[C@H](c3ccc(C#Cc4ccccc4)cc3)[C@H]2C1 | 6 |
| COC(=O)C[C@H]1CC[C@@H]2[C@H](COc3ccc(NC(=O)Nc4cccc(C#N)c4)cc3C(=O)N2C)O1 | -8 |
| O=C([C@H]1[C@H](CO)[C@H]2Cn3c(ccc(C4=CCCC4)c3=O)[C@@H]1N2)N1CCCCC1 | 0 |
| O=C(NCCc1ccccc1)[C@H]1[C@H](CO)[C@H]2Cn3c(cccc3=O)[C@H]2N1Cc1ccncc1 | -5 |
| CO[C@@H]1CN(C)C(=O)c2cc(NC(=O)NC(C)C)ccc2OC[C@H](C)N(Cc2ccccn2)C[C@@H]1C | -17 |
| C[C@H](CO)N1C[C@H](C)[C@@H](CN(C)Cc2ccc3c(c2)OCO3)Oc2c(NS(=O)(=O)c3ccc(F)cc3)cccc2C1=O | 7 |
| COCC#Cc1ccc([C@H]2[C@@H](CO)N3CCCCN(S(=O)(=O)c4cccc(OC)c4)C[C@H]23)cc1 | -9 |
| CC(=O)N1[C@@H](CO)[C@@H](c2ccccc2)[C@@H]1CN(CC1CCC1)C(=O)CN(C)C | 3 |
| O=C(Nc1ccc(F)cc1)N1C[C@@H]2[C@H](c3ccccc31)[C@H](CO)N2Cc1ccccc1 | 7 |
| COCC(=O)N1[C@H](CO)[C@@H]2c3ccccc3N(C(=O)Nc3ccccc3Cl)C[C@@H]21 | -5 |
| O=C(CC1CC1)N1[C@@H](CO)[C@@H]2c3ccccc3N(S(=O)(=O)c3ccccc3F)C[C@@H]21 | -7 |
| O=C(NC[C@H]1[C@@H](c2ccccc2)[C@@H](CO)N1C(=O)C1CC1)NC1CCCC1 | -2 |
| C[C@@H]1CN([C@@H](C)CO)C(=O)c2cc(NC(=O)c3ccncc3)ccc2O[C@H]1CN(C)C(=O)Nc1ccc2c(c1)OCO2 | 7 |
| CO[C@@H]1CN(C)C(=O)c2cc(NC(=O)C3CC3)ccc2OC[C@@H](C)N(CC2CCOCC2)C[C@H]1C | -3 |
| COc1ccc(-c2ccc3c(c2)[C@@H]2[C@@H](CCN2S(=O)(=O)c2ccccc2F)[C@H](CO)N3)cc1 | -2 |

7 compounds already listed, arranged by the value under UUG fidelity, rising:
SMILES	UUG fidelity
CO[C@@H]1CN(C)C(=O)c2cc(NC(=O)NC(C)C)ccc2OC[C@H](C)N(Cc2ccccn2)C[C@@H]1C	-17
O=C(CC1CC1)N1[C@@H](CO)[C@@H]2c3ccccc3N(S(=O)(=O)c3ccccc3F)C[C@@H]21	-7
CO[C@@H]1CN(C)C(=O)c2cc(NC(=O)C3CC3)ccc2OC[C@@H](C)N(CC2CCOCC2)C[C@H]1C	-3
O=C(NC[C@H]1[C@@H](c2ccccc2)[C@@H](CO)N1C(=O)C1CC1)NC1CCCC1	-2
O=C([C@H]1[C@H](CO)[C@H]2Cn3c(ccc(C4=CCCC4)c3=O)[C@@H]1N2)N1CCCCC1	0
O=C(Nc1ccccc1)N1CCCCN2[C@H](CO)[C@H](c3ccc(C#Cc4ccccc4)cc3)[C@H]2C1	6
C[C@H](CO)N1C[C@H](C)[C@@H](CN(C)Cc2ccc3c(c2)OCO3)Oc2c(NS(=O)(=O)c3ccc(F)cc3)cccc2C1=O	7

Next section
| Compound | UUG fidelity |
| --- | --- |
| CC(C)NC(=O)N1[C@@H]2CN(C(=O)c3ccccn3)c3ccccc3[C@@H]2[C@@H]1CO | 12 |
| N#Cc1cccc(-c2ccc([C@@H]3[C@H](CO)N4CCCCN(S(=O)(=O)c5ccccc5)C[C@@H]34)cc2)c1 | -5 |
| C[C@@H]1CN([C@@H](C)CO)C(=O)c2cc(NS(=O)(=O)c3ccc(Cl)cc3)ccc2O[C@H]1CN(C)C | -8 |
| C[C@@H]1CN([C@@H](C)CO)C(=O)c2cccc(NS(=O)(=O)c3cn(C)cn3)c2O[C@H]1CN(C)C | -5 |
| Cc1noc(C)c1S(=O)(=O)Nc1cccc2c1O[C@H](CN(C)C)[C@H](C)CN([C@@H](C)CO)C2=O | 11 |
| CCCN1C[C@H](C)[C@H](OC)CN(C)C(=O)c2ccc(NC(=O)c3cnccn3)cc2OC[C@H]1C | -6 |
| C[C@H]1CN([C@@H](C)CO)C(=O)c2cccc(NC(=O)c3nc4ccccc4s3)c2O[C@@H]1CN(C)C(=O)Nc1ccc2c(c1)OCO2 | 1 |
| O=C(CN1CCOCC1)N1CCCCN2[C@H](CO)[C@@H](c3ccc(C#Cc4ccccc4F)cc3)[C@H]2C1 | 51 |
| CO[C@@H]1CN(C)C(=O)c2ccc(NC(C)=O)cc2OC[C@@H](C)N(Cc2cc(F)ccc2F)C[C@H]1C | 3 |
| O=C(c1ccc(F)cc1)N1C[C@@H]2[C@H](c3ccccc31)[C@H](CO)N2C(=O)c1ccc(F)cc1 | 8 |
| O=C(c1cccc(F)c1)N1CCCCN2[C@H](CO)[C@@H](c3ccc(-c4ccc(F)cc4)cc3)[C@@H]2C1 | -9 |
| Cc1ccc(S(=O)(=O)Nc2ccc3c(c2)C(=O)N([C@H](C)CO)C[C@@H](C)[C@@H](CN(C)C(=O)Nc2ccc(C(F)(F)F)cc2)O3)cc1 | 0 |
| CCC(=O)N1[C@H](CNC(=O)COC)[C@H](c2ccc(-c3ccccc3)cc2)[C@@H]1CO | -1 |
| CO[C@@H]1CN(C)C(=O)c2cc(NC(=O)C3CCC3)ccc2OC[C@H](C)N(CC2CCCCC2)C[C@@H]1C | -5 |
| C[C@@H]1CN([C@H](C)CO)C(=O)Cc2cc(NC(=O)Cc3cn(C)c4ccccc34)ccc2O[C@@H]1CN(C)Cc1ccncc1 | 7 |
| COc1ccc(CN(C)C[C@H]2OCc3cn(nn3)CCCC(=O)N([C@@H](C)CO)C[C@@H]2C)cc1 | -19 |
| CN(C)CC#Cc1ccc([C@H]2[C@@H](CO)N3CCCCN(S(=O)(=O)c4ccccc4)C[C@@H]23)cc1 | -3 |
| O=C(c1cnccn1)N1CC[C@H]2[C@H](CO)Nc3ccc(-c4ccccc4)cc3[C@H]21 | 14 |
| C[C@@H]1CN([C@@H](C)CO)C(=O)c2cc(NC(=O)Cc3cn(C)c4ccccc34)ccc2O[C@@H]1CN(C)CC1CCCCC1 | -8 |
| COCC#Cc1ccc([C@H]2[C@H](CO)N3CCCCN(C(=O)Nc4cc(F)ccc4F)C[C@@H]23)cc1 | 7 |
| C[C@@H]1CN([C@@H](C)CO)C(=O)Cc2cc(NC(=O)c3ccncc3)ccc2O[C@@H]1CN(C)C | -16 |
| N#Cc1ccc(-c2ccc3c(c2)[C@@H]2[C@@H](CCN2C(=O)c2ccccc2F)[C@H](CO)N3)cc1 | -5 |
| CN1c2ccc(-c3ccccc3F)cc2[C@@H]2[C@@H](CCN2C(=O)CN2CCOCC2)[C@H]1CO | -7 |
| COc1ccccc1-c1ccc2c(c1)[C@@H]1[C@@H](CCN1C(=O)C1CCOCC1)[C@H](CO)N2 | -1 |
| CO[C@@H]1CN(C)C(=O)c2ccc(NS(=O)(=O)c3ccccc3C)cc2OC[C@@H](C)NC[C@H]1C | 6 |
| COc1cccc(C(=O)N2C[C@@H]3[C@H](c4ccccc42)[C@@H](CO)N3C(=O)c2ccc(F)cc2)c1 | 1 |
| CO[C@H]1CN(C)C(=O)c2ccc(NC(=O)C3CC3)cc2OC[C@@H](C)N(C(=O)NC(C)C)C[C@@H]1C | 8 |
| COc1ccc(CN2[C@@H](CO)[C@@H]3c4ccccc4N(C(=O)c4ccccc4)C[C@@H]32)cc1 | 1 |
| CN(C)CC(=O)Nc1ccc2c(c1)[C@@H]1C[C@@H](CC(=O)NCc3cccnc3)O[C@H](CO)[C@@H]1O2 | -19 |
| CCC(=O)N(CC)C[C@@H]1[C@@H](c2ccc(-c3ccccc3)cc2)[C@H](CO)N1C(C)=O | 6 |
| CN(C[C@@H]1N[C@H](CO)[C@H]1c1ccccc1)C(=O)c1ccccn1 | -3 |
| Cc1ccc(S(=O)(=O)Nc2ccc3c(c2)CC(=O)N([C@H](C)CO)C[C@H](C)[C@H](CN(C)C(=O)NC(C)C)O3)cc1 | 33 |
| COCC(=O)Nc1ccc2c(c1)C(=O)N(C)C[C@H](OC)[C@H](C)CN(Cc1ccccc1OC)[C@@H](C)CO2 | 1 |
| COc1ccc(CN(C)C[C@@H]2Oc3c(NS(=O)(=O)c4c(C)noc4C)cccc3C(=O)N([C@@H](C)CO)C[C@@H]2C)cc1 | -2 |
| C[C@H](CO)N1C[C@H](C)[C@H](CN(C)C)Oc2ccc(NS(=O)(=O)c3ccccc3)cc2CC1=O | 5 |
| C[C@@H]1CN([C@@H](C)CO)C(=O)c2cc(NS(=O)(=O)c3cn(C)cn3)ccc2O[C@H]1CN(C)Cc1ccc(C(=O)Nc2ccccc2N)cc1 | 18 |
| CN(C)CC#Cc1ccc([C@@H]2[C@@H](CO)N3CCCCN(CC4CCOCC4)C[C@H]23)cc1 | 22 |
| O=S(=O)(c1ccccc1)N1C[C@@H]2[C@H](c3ccccc31)[C@@H](CO)N2Cc1ccc2c(c1)OCO2 | 4 |
| O=S(=O)(c1ccc(F)cc1)N1CCCCN2[C@H](CO)[C@@H](c3ccc(C#CC4CCCC4)cc3)[C@@H]2C1 | 9 |
| CCC(=O)Nc1ccc2c(c1)C(=O)N(C)C[C@@H](OC)[C@H](C)CN(Cc1ccccc1C(=O)O)[C@@H](C)CO2 | 8 |
| COc1ccccc1NC(=O)N1CCCCN2[C@@H](CO)[C@@H](c3ccc(C#CC4CCCC4)cc3)[C@@H]2C1 | -17 |

Screens deposited in PubChem by Broad Institute.
